Source: PubChem
gsp antag: qHTS for Antagonists of gsp, the Etiologic Mutation Responsible for Fibrous Dysplasia/McCune-Albright Syndrome: qHTS; gsp-mutant cells, cAMP HTRF, 30 min; control for the full effect not named in the record; Potency, µM (titrated, usually from 76.9 µM), without a hit: at the top dose activity change, negative = inhibition, hits mostly inhibitors; 340,000 compounds, 0.4% hits; active = falling curve of any shape with a large fitted effect; inconclusive = falling curve, mostly with a smaller effect; inactive = flat or rising curve; cell line not stated here;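 also: intracellular cAMP measured with PDE inhibitor Ro 20-1724 present during compound exposure; potency is read from the fitted curve at half-maximal effect; % is scaled to controls: 0 for no effect and ±100 for the full control effect; nearly all actives have a fitted effect of over 65% in size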
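Measurement of cellular cAMP by homogeneous time-resolved fluorescence following a 30 min compound exposure at 37C. The PDE inhibitor […] was present throughout; the assay buffer was DPBS with 0.05% BSA and 0.005% Tween 20.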
TRPV1 PAM: HTS Assay for Compounds that Act as Potentiators of the Vanilloid Receptor 1; Transient receptor potential cation channel subfamily V member 1 (Homo sapiens), Q8NER1; TRPV1-expressing cells, Fluo-8 calcium influx, capsaicin EC20 potentiation; host cell line not named in the record; control for the full effect not named in the record; potentiation, % at 8.33 µM; 320,000 compounds, 0.02% hits; AID 540277, 2011; active means potentiation above 80%; inconclusive means 30% to 80%; inactive means below 30%; also: 0% is about no effect
Target sequence (Q8NER1 whole entry, looked up): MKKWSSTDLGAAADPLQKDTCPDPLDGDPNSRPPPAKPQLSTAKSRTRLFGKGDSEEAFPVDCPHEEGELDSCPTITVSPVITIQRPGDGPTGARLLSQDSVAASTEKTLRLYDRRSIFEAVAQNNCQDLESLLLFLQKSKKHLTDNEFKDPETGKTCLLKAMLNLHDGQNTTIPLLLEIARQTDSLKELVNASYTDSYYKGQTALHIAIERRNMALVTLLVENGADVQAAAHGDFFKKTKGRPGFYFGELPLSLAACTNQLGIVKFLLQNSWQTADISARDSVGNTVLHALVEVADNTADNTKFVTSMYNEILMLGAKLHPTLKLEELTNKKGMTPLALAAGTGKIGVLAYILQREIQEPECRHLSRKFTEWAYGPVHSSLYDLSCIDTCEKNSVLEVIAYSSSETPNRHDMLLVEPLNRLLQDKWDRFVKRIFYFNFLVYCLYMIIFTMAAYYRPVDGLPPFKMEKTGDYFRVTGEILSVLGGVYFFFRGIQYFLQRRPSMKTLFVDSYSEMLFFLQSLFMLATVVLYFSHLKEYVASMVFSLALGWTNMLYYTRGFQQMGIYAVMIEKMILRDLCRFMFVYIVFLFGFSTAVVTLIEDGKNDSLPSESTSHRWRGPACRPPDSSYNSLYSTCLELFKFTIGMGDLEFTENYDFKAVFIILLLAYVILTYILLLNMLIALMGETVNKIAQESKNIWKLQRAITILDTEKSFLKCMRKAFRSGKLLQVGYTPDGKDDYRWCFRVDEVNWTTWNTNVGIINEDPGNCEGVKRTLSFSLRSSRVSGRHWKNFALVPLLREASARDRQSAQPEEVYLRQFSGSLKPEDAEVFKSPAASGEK
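Fluo-8 calcium influx in TRPV1-expressing cells, kinetic read (ex 480/em 520 nm). Compound added and read 3 min for agonist activity, followed by capsaicin at EC20 final and 2 min further read for enhancement.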
Menin-MLL FL inh: qHTS Assay for Inhibitors Targeting the Menin-MLL Interaction in MLL Related Leukemias: Competition With Fluorescein Labeled MLL-derived Peptide | 290,000 tested, under 10 active | FP activity change, % at 61.4 µM | Fluorescence polarization, fluorescein-MLL peptide displacement from menin; inconclusive = falling polarisation curve, or a change in total fluorescence; inactive = total fluorescence flat and polarisation flat or rising; no compound was filed as active; the % refers to the polarisation; negative = inhibition;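 also: % of control where 0% means no effect; inhibitors lower the polarisation; unlabelled MLL peptide was the positive control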
TRPML1 blocker: qHTS for Inhibitors of the Human Mucolipin Transient Receptor Potential 1 (TRPML1) | activity change, negative = inhibition, % (test concentration not listed) | Mucolipin-1 (Homo sapiens), Q9GZU1 | 390,000 compounds, 0.02% hits | AID 624415, 2012 | TRPML1-inducible cells, Ca2+ dye fluorescence, FDSS; active compounds read low; inhibition of EC80 agonist-evoked calcium signal; in the data active means activity change below about -50%; inconclusive means about -30% to -50%; inactive means above about -30%;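 also: stimulus is agonist 54-4 at its EC80 concentration; % is scaled to controls: 0 for no effect and ±100 for the full control effect; compound concentration not given in the record; the text of the record puts the active cut at -80%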
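TRPML1-DL cells, Tet-induced overnight (~16 h, 37 °C) at 1,500 cells/well, were loaded with Ca8 no-wash dye plus quencher for 45-90 min at room temperature. Compounds were pinned during FDSS kinetic reading; agonist 54-4 at EC80 (4 uM final) then added.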
gsp ag: qHTS for Agonist of gsp, the Etiologic Mutation Responsible for Fibrous Dysplasia/McCune-Albright Syndrome: qHTS; Potency, µM (series often up to 76.9 µM), for inactives: at the top dose activation (cAMP increase), most hits filed as activators; 340,000 compounds, 0.13% hits; gsp mutant cells, cAMP HTRF, 30 min; control for the full effect not named in the record; AID 624287, 2012; active = well fitted activation curve with a large enough effect; inconclusive = small, poorly fitted or top-dose-only effect, or another doubt; inactive = no such curve, though single readings can be large or run the other way; cell line not stated here;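 also: phosphodiesterase inhibitor Ro 20-1724 added with compounds to block cAMP breakdown; potency is read from the fitted curve at half-maximal effect; nearly all actives have a fitted effect of over 60% in size; about a fifth of the inactives were tested at one dose only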
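Cells stably selected in G418 were plated at 2000/well, grown 16-24 hr, then given compounds in DMSO with the PDE inhibitor […] (300 uM solution added) for 30 min at 37C; cAMP was read by HTRF.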
ClpP mod: qHTS Assay for Activators of ClpP. ATP-dependent Clp protease proteolytic subunit (Bacillus subtilis (strain 168)), P80244. purified B. subtilis ClpP, FRET peptide cleavage, 20 min. Potency, µM (doses to about 57.5 µM), for the others: at the highest dose activity change, negative = active. 340,000 compounds, 1.9% hits. AID 651965, 2013; active = well fitted falling curve with a large enough effect; inconclusive = small, poorly fitted or top-dose-only effect; inactive = no such curve, though single readings can be large or run the other way; also: potency is read from the fitted curve at half-maximal effect; the source files actives as falling curves though it sought activators and does not explain the sign; nearly all actives have a fitted effect of over 65% in size; many hits overshoot -100%
Target sequence (P80244 whole entry, looked up): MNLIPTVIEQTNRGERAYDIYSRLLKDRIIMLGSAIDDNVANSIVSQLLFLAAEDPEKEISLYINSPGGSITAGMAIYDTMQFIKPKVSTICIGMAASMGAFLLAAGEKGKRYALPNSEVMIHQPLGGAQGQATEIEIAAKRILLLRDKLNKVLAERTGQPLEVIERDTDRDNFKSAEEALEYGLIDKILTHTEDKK
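Purified B. subtilis ClpP, 10 microg/mL final in Tris/HCl pH8 with KCl, BSA, glycerol and Tween-20, cleaved an Abz/nitrotyrosine-quenched decapeptide. Fluorescence (ex 320, em 430) was read at 0 and 20 min at room temperature. Delta was normalized to 5.8 microM ADEP and DMSO/no-enzyme controls.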
Sfp inh: qHTS Assay for Inhibitors of Bacillus subtilis Sfp phosphopantetheinyl transferase (PPTase) | Biochemical Sfp PPTase activity, qHTS | Potency, µM, inactives show max response, negative = inhibition, usual class: inhibitors | 310,000 compounds, 3.5% hits | 4'-phosphopantetheinyl transferase ffp (Bacillus subtilis), Q9F4F7; active = well fitted inhibition curve with a large enough effect; inconclusive = small, poorly fitted or top-dose-only effect, or another doubt; inactive = no such curve, though single readings can be large or run the other way;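 also: the enzyme is Sfp with the accession as filed and its product quenches rhodamine fluorescence; potency is read from the fitted curve at half-maximal effect; 0% = enzyme reaction without inhibitor and -100% = no enzyme wells; top concentration of the series not given in the record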
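Fluorescence-quenching assay with 15 nM Sfp, 5 uM rhodamine-CoA and 12.5 uM BHQ-2-labelled ybbR peptide in pH 7.6 Hepes/MgCl2 buffer. Enzyme was pre-incubated with compound for 15 min at room temperature. Rate was taken from the 30-min fluorescence change (525/598 nm).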
* hit, by the source's call; ? = inconclusive; / = not tested or not shown; & = joins results of further samples; [ ] = dose if it differs, or a comment.

SMILES	gsp antag	TRPV1 PAM	Menin-MLL FL inh	TRPML1 blocker	gsp ag	ClpP mod	Sfp inh
COc1ccc(-c2csc(NC(=O)c3ccc(OCC(=O)N4CCOCC4)c(OC)c3)n2)cc1OC	-8%	-13	28	-10	0%	-3.8%	-2%
Cc1cc(O)ccc1NC(=O)CCN1C(=O)c2ccc([N+](=O)[O-])cc2C1=O	10%	-1	-2.7	28	18%	-1.9%	-8%
COc1cccc(COc2ccc3ccc(=O)oc3c2)c1	0%	4	3.2	3	-61%[inhibitor]	3.5%	16%
O=C(c1ccccc1)c1cc2c(cc1[N+](=O)[O-])OCCO2	1%	-4	-3.1	75	?	0.5%	-5%
COc1ccc(-c2nnc(SCC(=O)N3CCCC(C)C3)o2)c(OC)c1 (configuration not stated)	-12%	5	2.2	-6	-8%	-2.7%	-2%
N#C/C(=C\c1ccc(Br)s1)C(=O)N1CCN(c2ccccc2)CC1	-27%	-22	/	27	?	-0.7%	-2%
CCOC(=O)C1CCN(S(=O)(=O)c2ccc3c(c2)CC(=O)N3C)CC1	-4%	7	3.0	-7	5%[15.4 µM]	-5.4%	-8%
CC(C)NC(=O)Cn1c(=O)n(CC(=O)N2CCCCC2)c(=O)c2sccc21	10%	1	/	16	?	0.1%	6%
C=C1CCC2[C@](C)(CO)[C@H](O)CC[C@@]2(C)[C@@H]1/C=C/C1=CCOC1=O (some centres not stated)	0%	-4	/	/	/	0.4%	/
CC(c1ccccc1)N1C(=O)C2C3CCC(C3)C2C1=O (configuration not stated)	11%	-4	0.8	62	-1%	-0.9%	1%
COc1cc2c(cc1OC)C(c1ccc(-c3ccc(Cl)cc3Cl)o1)=NCC2	-20%	-2	5.5	14	8%	-6.3%	28µM*
CC(c1ccccc1)n1ccnc1CO (configuration not stated)	/	/	/	-3	1%	-0.4%	/
O=C(CSc1nnc(-c2ccncc2)n1CCc1ccccc1)NCc1ccccc1	-9%	0	2.5	-4	?	-0.6%	9%
Brc1cnc(N2CCOCC2)nc1N1CCCCC1	-5%	/	-1.1	21	0%	0.8%	9%
COc1ccc(NC(C)=O)cc1NC(=O)c1cccc(S(=O)(=O)N2CCN(Cc3ccccc3)CC2)c1	-15%	3	/	14	-3%	-1.3%	/
O=C(Nc1ccc(N2CCN(Cc3ccccc3F)CC2)cc1)c1ccccc1[N+](=O)[O-]	/	-5	-1.1	14	0%[15.4 µM]	/	12%
CC(=O)N1c2c(cc(Br)cc2S(=O)(=O)NCc2cccnc2)CC1C (configuration not stated)	-3%	-5	-1.4	-4	-1%	-4.0%	8%
CCC(c1nnnn1CCc1ccccc1)N(Cc1ccco1)Cc1cc2cc(C)cc(C)c2[nH]c1=O (configuration not stated)	-7%	0	9.1	12	-11%	-22%	?
CSc1cccc(NC(=O)Nc2ccccc2C(N)=O)c1	-11%	-1	-21	-4	-36%[inhibitor]	?	16%
CC(C)c1ccc(C2CC(=O)N3CN(Cc4ccco4)CSC3=C2C#N)cc1 (configuration not stated)	?	-9	3.7	12	-13%	-2.3%	2.2µM*
O=C(O)c1nc(NCCc2ccccc2)ncc1Cl	7%	-7	2.6	74	10%	/	8%
CCn1c(=O)cc(OCC(=O)Nc2cccnc2)c2ccccc21	10%	-19	4.7	9	-35%[inhibitor]	-8.8%	0%
CCCCC1C2C(=O)N(c3ccccc3)C(=O)C2ON1c1ccccc1 (configuration not stated)	-9%	-24	-0.1	-10	-30%[inhibitor]	2.2%	15%
CC(C)N=C(NC#N)SCc1ccc(Br)cc1	-21%	3	4.8	1	-4%	2.4%	10%
CCN1C(=O)[C@H]2[C@H]3CN=C(SCc4ccc(C#N)cc4)N3[C@@](Cc3ccccc3)(C(=O)OC)[C@H]2C1=O	0%	/	/	27	/	0.2%	/
COc1ccc(CCC(=O)Nc2ccc(Cl)c(S(=O)(=O)N3CCOCC3)c2)cc1OC	-29%	/	/	-13	-1%	2.3%	/
COc1cccc(C2(CSc3nnc(-c4cc(OC)c(OC)c(OC)c4)o3)OCCO2)c1	-7%	-24	0.0	-1	?	-7.4%	7%
Cc1ccccc1C(=O)NCCCCc1ccccc1	9%	-17	0.0	7	27%	-4.9%	-1%
CC(Sc1nc2sccc2c(=O)n1-c1ccccc1)C(N)=O (configuration not stated)	8%	-1	6.0	-1	-22%	/	-8%
CCCC(=O)OCCNC(=O)c1cc2ccccc2oc1=O	8%	-7	0.8	-6	46%	18µM*	11%
CC(C)C1C(=O)N(Cc2cn(CCC3OCCCO3)nn2)CCS(=O)(=O)N1Cc1ccc(-c2cccc(N(C)C)c2)cc1 (configuration not stated)	/	/	/	1	-79%[inhibitor]	-24%	/
O=C(/C=C/c1ccco1)Nc1cccnc1	5%	4	2.3	-6	-1%	/	25µM*
COC(=O)CCC(=O)OC1(C)C(=O)C2=CN(CCCCO)C(c3ccc(OC)cc3)=CC2=C(Br)C1=O (configuration not stated)	/	27	?	/	/	/	-18%&17%
Cc1nnc(SC(C)C)n(N)c1=O	-16%	-3	0.1	-3	11%[15.4 µM]	/	-21%
Cc1ccc(S(=O)(=O)NCc2ccccc2)cc1C(=O)NC1CCC(C)CC1 (configuration not stated)	6%	5	/	9	2%	-2.6%	18%
CCN(CC)Cc1ccccc1CNC(=O)c1cccc(S(=O)(=O)Nc2ccc3c(c2)OCO3)c1	-8%	-7	/	24	-30%[inhibitor]	1.0%	/
COc1ccccc1-c1nc(-c2ccc(Br)o2)no1	-14%	7	0.7	-1&-3	4%	?	-6%
CCCCS(=O)c1c(O)c2ccccc2[nH]c1=O (configuration not stated)	7%	7	-0.8	1	-12%[15.4 µM]	-3.2%	-25%
Cn1c(C(=O)N2CCCC(C(=O)NCCc3ccccc3)C2)cc2sccc21 (configuration not stated)	-23%	10	4.0	21	1%	1.2%	-30%
O=C1Nc2ccccc2/C1=N\N1CCOCC1	4%	-13	-0.8	-6	5%	/	2%
CCn1c(SCc2ccccc2Cl)nc2nc3c(cc2c1=O)CCCC3	?	7	0.5	16	-25%	0.2%	-10%
Cc1ccc(CSCC(=O)Nc2ccc(F)cc2)cc1	5%	-3	2.4	2	6%	-0.4%	5%
O=c1[nH]nc(-c2ccc(OCc3ccc(Cl)cc3Cl)cc2)o1	10%	3	2.4	-2	12%	-3.0%	18%
CCCN(C(=O)c1ccc2c(SCC(=O)O)c3c(nc2c1)CCC3)c1cccc(C)c1	-4%	12	/	11	20%	-1.2%	10%
O=C(NC(CC(=O)N1CCCC(C(F)(F)F)C1)c1ccccc1)c1ccccc1Cl (configuration not stated)	-19%	-8	/	-9	5%	2.6%	4%
O=c1onc(-c2ccccc2)c2ccccc12	1%	/	/	27	-5%	1.3%	/
COC(=O)c1c(C)cc(O)cc1O	14%	/	-6.4	/	/	0.9%	9%
CN(C)c1nnnn1-c1ccc(Cl)cc1Cl	-3%	-1	-1.2	18	7%[15.4 µM]	/	18%
COc1ccc(Nc2nc(C)cc(C)c2C#N)cc1	17%	-8	-0.6	-15	-8%	?	15%
O=C(NCC1CCCO1)c1cccnc1NCc1ccc(F)cc1 (configuration not stated)	0%	10	1.3	-10	-5%[15.4 µM]	-5.4%	10%
Cc1ccc(-n2nc3c(c2NC(=O)c2cccs2)CS(=O)(=O)C3)c(C)c1	-11%	3	-1.5	3	22%	-1.0%	-2%
COc1ccc(N(C)S(=O)(=O)c2ccc3c(c2)CCN3C(=O)C2CC2)c(OC)c1	28µM*	10	/	1	-33%[inhibitor]	0.9%	10%
CC(=O)c1ccc(-n2nnnc2SCC(=O)NNC(=O)c2ccco2)cc1	-6%	1	5.3	-1	-1%	0.1%	0%
Cc1ccc(SCc2cc(=O)[nH]c(N3CCN(Cc4ccc5c(c4)OCO5)CC3)n2)cc1	-3%	1	3.1	-8	37%	0.7%	19%
Cn1cc(Br)c(C(=O)Nc2nccs2)n1	-10%	-3	-4.5	-2	26%[15.4 µM]	-1.3%	-3%
COc1ccc(CNC(=O)C2CCN(S(=O)(=O)c3cccc(C(F)(F)F)c3)CC2)cc1	3%	-6	/	-2	3%	-2.4%	/
CCOc1ccc(NS(=O)(=O)c2ccc(SC)cc2)cc1	-21%	0	3.3	-7	-59%[inhibitor]	1.2%	5%
COc1ccc(N(C(C)C(=O)N2CCC(Cc3ccccc3)CC2)S(C)(=O)=O)cc1 (configuration not stated)	3%	4	-0.4	3	1%[15.4 µM]	/	10%
CCn1c(SCC(=O)c2ccccc2)nnc1-c1cc2cc(Br)ccc2o1	-3%	8	0.7	-24	6%	-22%	16%
CC(O)[C@H]1CC[C@H]2[C@@H]3CC[C@H]4C[C@@H](O)CC[C@]4(C)[C@H]3/C(=N/O)C[C@]12C (some centres not stated)	2%	15	/	-3	/	2.2%	/
CC(=O)NC(Cc1c[nH]c2ccccc12)C(=O)OCC(=O)Nc1ccc2c(c1)OCO2 (configuration not stated)	-4%	-11	0.4	6	-6%	-7.7%	-5%

Three compounds out of the list, ordered by formula weight, ascending.
SMILES	gsp antag	TRPV1 PAM	Menin-MLL FL inh	TRPML1 blocker	gsp ag	ClpP mod	Sfp inh
COc1ccc(Nc2nc(C)cc(C)c2C#N)cc1	17%	-8	-0.6	-15	-8%	?	15%
O=C(NCC1CCCO1)c1cccnc1NCc1ccc(F)cc1 (configuration not stated)	0%	10	1.3	-10	-5%[15.4 µM]	-5.4%	10%
COc1ccc(N(C)S(=O)(=O)c2ccc3c(c2)CCN3C(=O)C2CC2)c(OC)c1	28µM*	10	/	1	-33%[inhibitor]	0.9%	10%
